Bioassay records as filed in PubChem BioAssay.
Autofluor counter – flagged as autofluorescent in microsphere protease counterscreen | compound autofluorescence counterscreen, microsphere flow cytometry; hits give high values | fluorescence intensity (concentration not given with the values) | 360,000 tested, 3.1% active;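 active = at least 3 SD above the mean of all compounds, about 16000 in these data; inconclusive = too few beads counted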;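 also: 100 nL of 1 mM stock went into each well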
Mtb hypoxia inh – PubChem AID 1159583; 300,000 tested, 0.1% active; fluorescence inhibition, % (test concentration not listed); M. tuberculosis hypoxia-regulated fluorescent reporter, fluorescence;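 active = 35 to 45% if threefold the growth effect, above 45% if 1.5-fold the growth effect; inactive = the rest, general growth blockers included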;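 also: wells of about 50 µL received 100 nL stock; 0% = vehicle wells and 100% = reference inhibitor wells; whole bacteria with a GFP reporter of the hypoxia response; strong numbers were not always called active; many hits fall short of the cut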
BJeLR viability – MLPCN primary cell-based screen for lethality selective to Ras in HRASV12 cells | AID 1554, 2009 | BJeLR (HRASV12) viability, CellTiter-Glo ATP luminescence, 48 h; reference of the scale not given here | inhibition, % (no concentration beside the values) | 300,000 tested, 0.17% active;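 active = replicate mean above 50%; inconclusive = above 50% but judged a plate artefact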;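 also: 50 nL library stock added to about 25 µL; numbers are from one replicate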
RN4220 kill – growth inhibition of S. aureus RN4220, primary screen, OD600 | 16 h | inhibition, % (no concentration beside the values) | 330,000 tested, 0.33% active | AID 1259311, 2017;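 active = z-score of -3 or lower and OD600 up to 0.18 on both plates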;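 also: plate controls were untreated cells for no effect and reference antibiotic for full effect; stock transfer was 100 nL into about 80 µL; one replicate is shown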
ugtP null kill – growth inhibition of ugtP-null S. aureus, primary screen, RN4220 ugtP deletion, OD600; 16 h; some inactives read as strong as hits; growth inhibition, % (concentration not given with the values); 330,000 tested, 0.54% active;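 active = z-score under -3 and OD600 up to 0.15 on both plates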;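 also: plate controls were untreated wells for no effect and antibiotic for full effect; wells of about 80 µL received 100 nL stock; the first replicate is given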
PrP 5UTR inh – inhibition of PrP 5' UTR reporter expression; cell-based PrP 5' UTR mRNA reporter, plate reader; inhibition, % (no concentration beside the values); 340,000 tested, 0.35% active; AID 488862, 2010;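 active = every replicate at 50% or more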;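 also: 0 = median of the neutral control wells; tested in H4 reporter cells; numbers are from one replicate; inactives centre near -14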
Mtb hypoxia inh growth – second read-out of Mtb hypoxia inh, no call of its own (marks repeat the call); growth inhibition, %; measured here: M. tuberculosis growth (absorbance);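 0% = vehicle and 100% = reference antibiotic; read after six days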
Active calls of the source: *; ? = inconclusive; . = no result given.

SMILES	Autofluor counter	Mtb hypoxia inh	Mtb hypoxia inh growth	BJeLR viability	RN4220 kill	ugtP null kill	PrP 5UTR inh
Cc1cc(OCC(=O)NCC(O)c2ccccc2)c2c(C)c(C)c(=O)oc2c1 (configuration not stated)	5812	10.3	5.7	5.8	4.8	6.6	-12.9
Cn1c(=O)c2[nH]c(Cc3ccsc3)nc2n(C)c1=O	4037	6.5	9.4	.	2.3	0.7	-5.9
O=C(CCCCCn1c(=O)[nH]c2ccccc2c1=O)NCCCN1CCN(c2ccccc2F)CC1	3206	6.2	14.8	-14.5	3.5	8.1	-8.8
CN1C(=O)NC(c2ccc(O)cc2)C2=C1CN(c1ccccc1)C2=O (configuration not stated)	5640	15.8	9.9	-9.4	13.2	2.5	-7.5
O=C(COc1nsnc1N1CCOCC1)Nc1ccc([N+](=O)[O-])cc1	6161	-1.6	-3.3	-8.0	0.4	-5.5	-13.8
CCOc1ccc(/C=C(\C#N)C(=O)Nc2ccccn2)cc1	4151	-4.6	-15.9	8.4	3.2	-1.1	-21.0
CCOc1ccc(N2C(=O)c3cccnc3C2Nc2ccc(OC)cc2)cc1 (configuration not stated)	11300	3.6	3.2	-9.8	2.0	4.4	-23.6
CCC(Oc1cccc(Cl)c1)C(=O)N1CCCN(C)CC1 (configuration not stated)	5126	-4.7	-2.9	-8.6	1.1	6.3	-13.0
O=C(CSc1nnc(-c2ccccn2)n1Cc1ccco1)c1ccc(-c2ccccc2)cc1	?	-13.7	-8.1	-2.0	10.0	-16.7	-11.2
C/C(=N\NC(=O)C1(C)CC1(Br)Br)c1ccc(NC(=O)c2ccc(C)o2)cc1 (configuration not stated)	2267	.	.	8.4	.	.	-33.8
O=C(CC1S/C(=N/N=C2CCCCCC2)NC1=O)Nc1ccc(Br)cc1F (configuration not stated)	6801	9.7	-2.0	0.1	0.3	-9.8	-19.7
CCCCc1c(O)nc(SCC(=O)c2ccccc2)n(-c2ccccc2)c1=O	.	14.4	6.4	7.6	1.3	-1.6	-18.1
O=c1c2cn[nH]c2nc(SCc2ccccc2F)n1-c1ccc(Br)cc1	2165	-4.3	-3.1	1.6	3.2	-12.9	-18.8
C/C(=C\C(=O)c1ccc(C)o1)Nc1ccc2c(c1)OCO2	23606*	3.8	9.9	2.6	1.1	-3.9	-60.9
CCOC(=O)/C(=C\c1ccc([N+](=O)[O-])cc1)C(=O)c1cc(C(C)=O)c(Nc2ccccc2)s1	3078	2.8	9.9	58.8*	6.6	5.1	-18.3

Molecules shown so far that have bromine:
SMILES	Autofluor counter	Mtb hypoxia inh	Mtb hypoxia inh growth	BJeLR viability	RN4220 kill	ugtP null kill	PrP 5UTR inh
C/C(=N\NC(=O)C1(C)CC1(Br)Br)c1ccc(NC(=O)c2ccc(C)o2)cc1 (configuration not stated)	2267	.	.	8.4	.	.	-33.8
O=C(CC1S/C(=N/N=C2CCCCCC2)NC1=O)Nc1ccc(Br)cc1F (configuration not stated)	6801	9.7	-2.0	0.1	0.3	-9.8	-19.7
O=c1c2cn[nH]c2nc(SCc2ccccc2F)n1-c1ccc(Br)cc1	2165	-4.3	-3.1	1.6	3.2	-12.9	-18.8

Other results:
SMILES	Autofluor counter	Mtb hypoxia inh	Mtb hypoxia inh growth	BJeLR viability	RN4220 kill	ugtP null kill	PrP 5UTR inh
O=c1[nH]c(=S)n(C2CC2)c(O)c1/C=N/Nc1cccc2ccccc12	9017	.	.	5.0	.	.	-19.0
CC(=O)c1nn(-c2cccc(Br)c2)cc1C(=O)c1ccc(Br)cc1	5413	1.0	0.6	0.4	2.3	-1.7	-18.4
O=C(COC(=O)CCc1ccccc1)NC(c1ccccc1)c1ccccc1	6987	8.0	3.1	12.5	3.9	2.3	-5.5
C=CCN1C(=O)CSc2ccc(C(=O)NCCC3=CCCCC3)cc21	7899	4.8	6.8	-6.4	6.6	29.5	-16.6
CC(C)(C)NC(=O)C(c1ccncc1)N(C(=O)Cn1nnc(-c2ccc(F)cc2)n1)c1cccc(F)c1 (configuration not stated)	2933	4.9	-4.2	-0.9	-1.4	-5.6	-26.3
COc1ccc(Cl)cc1NC(=O)NCc1ccc2c(c1)OCO2	5748	11.3	-12.3	-0.4	-0.8	-6.7	-9.7
Cc1ccc(C2(c3noc(CN(C)CCCN4CCOCC4)n3)CCCC2)cc1	.	-5.0	-5.1	5.9	5.2	7.6	.
O=C(NCc1ccco1)c1cc(S(=O)(=O)N2CCOCC2)ccc1Cl	10236	0.9	-1.1	3.7	0.5	-0.1	-25.9
Cc1cc(N2CCCC2=O)cc(C)c1CN1C(=O)c2ccccc2C1=O	5802	9.9	9.8	0.6	3.7	7.1	4.8
CCn1cc(C(=O)N[C@@H](C)C(=O)NCCCO)c(=O)c2cc3c(cc21)OCO3	3121	5.8	-0.1	0.9	5.4	8.4	-17.4
CC(=O)Nc1c(-c2ccc(Cl)cc2)c(=O)c2ccccc2n1C	3768	14.3	9.4	-5.9	1.3	5.2	-12.4
Cc1ccc(-n2cc(-c3ccccc3)c3c(N4CCN(C)CC4)ncnc32)cc1	4691	4.6	8.1	-0.3	-6.7	10.7	-5.0
CCN(CC)CCn1c(=N)n(CCO)c2ccccc21	2645	.	.	8.0	-0.7	-3.1	-32.3
N#CCSc1nc2ccccc2c(=O)n1-c1ccccc1	3117	-3.6	-3.0	12.8	9.4	11.1	-1.3
Cc1ccc(CC(=O)N2CCN(C(=O)c3ccco3)CC2)cc1	2471	-1.7	3.9	8.4	4.2	4.5	-19.0
Cc1ccc(-c2nnn(CC(=O)N(c3ccc(F)cc3)C(C(=O)NC3CCCC3)c3ccncc3)n2)o1 (configuration not stated)	3806	-7.2	3.1	-2.7	-2.8	5.6	-14.2
O=C(NN=Cc1cc2ccccc2nc1Cl)c1ccncc1	.	15.9	14.7	.	2.9	1.5	.
COc1ccc(CN2CCNC(=O)C2CC(=O)NCc2cnn(C)c2)cc1OC (configuration not stated)	2872	8.1	9.7	-5.3	1.6	3.9	-1.4
O=C(CCCOc1ccccc1)N1CCN(c2ccccn2)CC1	3412	14.6	6.6	0.5	-13.4	-0.8	-33.2
Cn1nc(C(=O)NC2CCC(O)CC2)c2ccccc2c1=O (configuration not stated)	4041	15.6	9.0	.	4.0	4.6	-5.6
O=C(Nc1ccccc1[N+](=O)[O-])C1COc2ccccc2O1 (configuration not stated)	3136	16.5	5.1	6.8	6.1	-6.9	-44.6
Cc1ccc(S(=O)(=O)N2C(c3cccc(Cl)c3)CC=C(C(=O)O)C2c2ccccc2F)cc1 (configuration not stated)	.	12.5	6.3	.	27.9	30.8	.
O=C(OCc1ccc([N+](=O)[O-])cc1)C1CC(=O)N(c2ccccc2)C1 (configuration not stated)	7130	1.7	9.3	4.2	4.0	7.1	-20.1
N#Cc1ccc(CN2CCN(C(=O)c3cn(Cc4ccccc4)nc3-c3cccnc3)CC2)cc1	6189	5.2	2.9	.	5.4	5.7	-4.8
CC(C)Cc1nnc(NC(=O)CSc2nc(O)c(-c3ccccc3)c(=O)[nH]2)s1	3170	-12.2	10.7	-24.5	0.1	-12.0	-8.2
C=CCn1c(SCC(=O)N(CC)C2CCS(=O)(=O)C2)nc2scc(-c3ccccc3)c2c1=O (configuration not stated)	4064	5.1	6.2	.	1.8	-4.5	-7.6
COc1cccc(-c2cccc(NC(=O)C3CCN(C4CCOCC4)CC3)c2)c1	5542	-2.7	5.7	5.2	-2.9	-3.3	-15.0
CCOP(=O)(OCC)C(O)c1cccc([N+](=O)[O-])c1 (configuration not stated)	4832	-4.3	-2.4	3.0	0.2	-3.7	-5.6
CCOC(=O)CC(NC(=O)c1ccccc1F)c1ccc(C)cc1 (configuration not stated)	4411	0.8	6.2	13.8	9.1	3.7	7.6
Cc1ccc(C(=O)NN=Cc2ccc(-c3ccc(Cl)cc3)o2)cn1	.	4.7	9.7	.	0.6	-6.3	.
CC1CCC(NC(=O)CNC(=O)Cc2cccc3ccccc23)CC1 (configuration not stated)	3555	7.8	8.1	-10.2	3.9	4.0	-10.3
CN(C(=O)c1cccc(NC(=O)Cc2ccc(NC(=O)C3CCN(S(=O)(=O)c4cccc([N+](=O)[O-])c4)CC3)cc2)c1)C1CC1	3870	-6.6	8.0	.	6.1	-2.9	-11.9
C=CCSc1nc2sc(-c3ccccc3)cc2c(=O)n1N	2854	11.9	8.0	-2.0	7.9	-5.1	8.4
N#CCCN(Cc1cccnc1)C(=S)NC(=O)c1ccccc1	3416	3.0	4.7	.	7.2	-1.7	-16.2
CC(NC(=O)c1ccc2c(=O)n3c(nc2c1)CCCCC3)c1ccccc1 (configuration not stated)	5413	4.5	5.9	.	3.2	1.1	-9.6
CS(=O)(=O)Nc1ccc(C(=O)NCc2ccco2)cc1	10912	5.6	4.6	6.4	2.7	8.4	-17.9
Cc1c(NC(=O)Nc2cccc([N+](=O)[O-])c2)c(=O)n(-c2ccccc2)n1C	5777	.	.	1.8	.	.	-15.1
CCOc1cc(C=NNC(=O)c2cc(C)[nH]n2)ccc1OC(=O)c1ccc([N+](=O)[O-])cc1	.	2.4	2.8	.	-18.3	0.4	.
Cc1ccc(C)c(OCCn2ccnc2)c1	3915	5.7	4.0	3.1	5.9	-1.3	-22.1
O=C(Cc1cccs1)N1CCN=C1SCc1ccccc1Cl	4727	16.1	0.6	-3.6	21.1	8.4	-9.1
O=C(CCSCCc1ccccn1)Nc1nccs1	5543	-0.6	3.8	0.0	1.0	1.5	-13.6
CCCc1cc(=O)n2[nH]c(NCc3ccc(OC)c(OC)c3)nc2n1	4929	-2.2	5.9	-4.2	1.0	3.8	-23.3
COC(=O)c1ccc(S(=O)(=O)NCc2ccc(S(N)(=O)=O)cc2)n1C	5998	1.1	-3.5	-3.4	-0.6	4.6	-11.2
Fc1ccc(Cn2cnc3ccccc32)cc1	3812	8.0	13.5	-5.1	6.6	-3.9	2.3
Cc1nc(CC(=O)Nc2nc(-c3ccccc3)cs2)cs1	2384	.	.	-0.8	-6.0	-7.9	-16.0

Complete entries from above. Values in the order: Autofluor counter, Mtb hypoxia inh, Mtb hypoxia inh growth, BJeLR viability, RN4220 kill, ugtP null kill, PrP 5UTR inh
Listed for COC(=O)c1ccc(S(=O)(=O)NCc2ccc(S(N)(=O)=O)cc2)n1C → 5998, 1.1, -3.5, -3.4, -0.6, 4.6, -11.2
Listed for O=C(Cc1cccs1)N1CCN=C1SCc1ccccc1Cl → 4727, 16.1, 0.6, -3.6, 21.1, 8.4, -9.1

More results
SMILES	Autofluor counter	Mtb hypoxia inh	Mtb hypoxia inh growth	BJeLR viability	RN4220 kill	ugtP null kill	PrP 5UTR inh
COc1ccc(S(=O)(=O)NCC2CCCN(Cc3ccc(O)cc3)C2)cc1 (configuration not stated)	5529	5.0	4.3	6.4	3.9	3.9	-2.2
Cc1cc(C)n2nc(SCC(=O)NC3CCCCC3)nc2n1	5827	5.6	1.9	-1.5	2.3	2.8	-9.9
CN1CCN(C(=O)c2cnn(-c3ccccc3)c2NC(=O)c2cccs2)CC1	10117	6.7	5.5	-1.3	3.2	3.1	1.6
CCOC(=O)N1CCN(C(=O)c2cnn3c(C(F)(F)F)cc(-c4cccs4)nc23)CC1	4366	15.6	6.2	9.2	-7.0	6.2	-13.7
Cc1nnc2ccc(N3CCOCC3)nn12	3335	5.3	3.6	1.8	3.7	2.9	-23.9
CC(C)(C)[C@@H]1C=C(C(=O)N2CCN(Cc3ccc4c(c3)OCO4)CC2)O[C@H](OCc2ccc(CO)cc2)C1	4027	.	.	4.6	.	.	-9.4
COCCNC(=S)N1CCC(c2nc(-c3ccc(N(C)C)cc3)no2)CC1	2487	-0.4	0.1	-3.7	3.3	5.7	-5.6
COc1ccc(-n2cc(CNCC3CCOCC3)c(-c3cccc(F)c3)n2)cc1	2640	-7.5	4.6	1.7	-2.7	8.5	-1.2
Cc1ccc(S(=O)(=O)n2ccc(OC(=O)c3cccs3)n2)cc1	3559	1.4	-1.8	-6.9	1.2	1.5	-8.8
COc1c(F)c(F)c(C(=O)Nc2cccc(Cl)c2N2CCOCC2)c(F)c1F	4621	.	.	4.4	-1.9	0.5	-14.6
CCN1CCN(C(=O)c2ccc(-c3nc4ccccc4s3)s2)CC1	4305	1.9	-2.0	-7.1	0.9	-2.0	-94.3
COc1ccc(C=NNC(=O)c2cccc([N+](=O)[O-])c2)cc1OS(=O)(=O)c1ccccc1	.	-6.7	-7.8	.	-0.1	-10.2	.
COc1ccccc1C(=O)NCCC(=O)NCc1ccccn1	7537	5.2	1.5	.	5.7	6.5	-16.4
Nc1ccc2nc(SCc3ccc([N+](=O)[O-])cc3)sc2c1	11632	2.9	8.2	2.0	4.4	-10.4	-32.9

Compounds were not picked by outcome; 4% or so of the library scored in one or more.
